Screens as filed in PubChem BioAssay.
RE007 growth inh: less growth of the S. pombe RE007 Vpr strain; S. pombe RE007 Vpr strain, BacTiter-Glo ATP luminescence, 24 h; control for the full effect not named in the record; Potency, µM (titrated, usually from 92.2 µM), for the others: at the highest dose activity change, negative = less growth; actives 0.21% (n = 360,000); AID 651644; active = well fitted falling curve with a large enough effect; inconclusive = small, poorly fitted or top-dose-only effect; inactive = no such curve, though single readings can be large or run the other way;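 note: % is set by controls: 0 for no effect and ±100 for the full control effect; nearly all actives have a fitted effect of over 50% in size; the assay follows cell death caused by Vpr and the record does not say whether a fall means rescue or toxicity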
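Fission yeast RE007 carrying one integrated HIV-1 vpr copy, seeded at OD 0.01 in PMG+AL medium with 23 nL pinned compound. Grown 24 h at 30 degrees; viability read by BacTiter-Glo luminescence after 5 min.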
Cruzain noTriton: blocks cruzain activity in detergent-free assay; P25779; actives 2.3% (n = 200,000); Potency, µM, for inactives: max response, negative = inhibition, hits mostly inhibitors; purified cruzain, Z-FR-AMC fluorescence, no detergent; AID 1476; active = well fitted curve in the direction sought with a large enough effect; inconclusive = small, poorly fitted or top-dose-only effect, or another doubt; inactive = no such curve, though single readings can be large; an effect the other way counts as inactive or inconclusive;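 note: plate controls were enzyme without inhibitor for no effect and buffer without enzyme for full effect; nearly all actives have a fitted effect of over 40% in size; top concentration of the series not given in the record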
Target sequence (P25779 123-467 limits assumed): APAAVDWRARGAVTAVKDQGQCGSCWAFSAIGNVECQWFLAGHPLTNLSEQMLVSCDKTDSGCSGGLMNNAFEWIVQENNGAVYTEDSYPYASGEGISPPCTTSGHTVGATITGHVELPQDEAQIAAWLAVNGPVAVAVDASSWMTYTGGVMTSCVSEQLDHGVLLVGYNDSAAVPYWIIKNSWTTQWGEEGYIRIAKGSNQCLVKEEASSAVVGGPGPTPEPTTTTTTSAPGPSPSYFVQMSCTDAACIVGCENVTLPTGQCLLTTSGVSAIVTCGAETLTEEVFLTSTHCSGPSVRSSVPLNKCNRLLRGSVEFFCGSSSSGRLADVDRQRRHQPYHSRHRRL
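Purified cruzain at 1.5 nM, pre-incubated 15 min with compound at room temperature in 100 mM sodium acetate pH 5.5, 5 mM DTT, 0.00005% Triton X-100. Reaction started with 2 uM Z-FR-AMC; AMC fluorescence increase over 60 s gives rate.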
StopGo reporter: lowers the luciferase signal of an FMDV 2A StopGo reporter | Potency, µM (titrated, usually from 57.9 µM), for the others: top-dose signal change, negative = less light | actives 1.2% (n = 410,000) | human cells with a luciferase reporter of 2A StopGo recoding; control for the full effect not named in the record | AID 1159524; active = well fitted falling curve with a large enough effect; inconclusive = small, poorly fitted or top-dose-only effect; inactive = no such curve, though single readings can be large or run the other way; tested in HEK293T cells; note: % is set by controls: 0 for no effect and ±100 for the full control effect; nearly all actives have a fitted effect of over 45% in size; luciferase light after 4 h
Cruzain inh Det: blocks cruzain activity in presence of Triton detergent; P25779; AID 1478; Potency, µM, for inactives: max response, negative = inhibition, actives largely listed as inhibitors; actives 0.43% (n = 200,000); purified cruzain, Z-FR-AMC fluorescence, 0.01% Triton; active = well fitted curve in the direction sought with a large enough effect; inconclusive = small, poorly fitted or top-dose-only effect, or another doubt; inactive = no such curve, though single readings can be large; an effect the other way counts as inactive or inconclusive;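 note: plate controls were neutral wells for no effect and buffer without enzyme for full effect; nearly all actives have a fitted effect of over 40% in size; top concentration of the series not given in the record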
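In this qHTS format, compounds are incubated with 1.5 nM cruzain for 15 min at room temperature before 2 uM Z-FR-AMC is added. Release of AMC is followed at 360/450 nm, and progress is taken as the 60 s fluorescence difference.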
SARS PLP yeast: SARS-CoV PLP inhibition in yeast. Potency, µM (series often up to 32.9 µM), inactives show at the top dose activity, positive = growth rescue. actives 0.19% (n = 330,000). S. cerevisiae expressing SARS-CoV PLpro, growth rescue; control for the full effect not named in the record. AID 485353; note: 0% is about no effect; nearly all actives have a fitted effect of over 55% in size; growth read by luminescence after 48 h
MARV entry inh: inhibitors of Marburg virus binding or cell entry | Potency, µM (highest dose often 37.8 µM), inactives show at the top dose activity change, negative = inhibition, usual class: inhibitors | actives 1.8% (n = 300,000) | AID 540276 | Marburg virus pseudotyped entry inhibition, cell reporter; control for the full effect not named in the record; about a third of the inactives were read at about 46 µM; active = well fitted inhibition curve with a large enough effect; inconclusive = small, poorly fitted or top-dose-only effect, or effect the other way; inactive = flat fitted curve, though single readings scatter; tested in HEK293 cells; about a fifth of its hits are not listed in these tables; note: % is set by controls: 0 for no effect and ±100 for the full control effect; luciferase read-out
NS1 inh: inhibitors of influenza NS1 protein function. S. cerevisiae slowed by influenza A NS1, growth recovery by OD600. AID 2326. Potency, µM (titrated, usually from 46.1 µM), for inactives: top-dose activity, positive = more growth. actives 0.4% (n = 270,000); note: actives are rising curves; nearly all actives have a fitted effect of over 50% in size
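In this qHTS, NS1 from influenza A is expressed in budding yeast, where it slows growth. Cells are switched from glucose to 2% galactose medium (pH 6.0, -URA), treated with compound, and growth recovery is read at OD600.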
Lassa entry inh: inhibitors of Lassa virus binding or cell entry | Lassa virus pseudotype entry inhibition, cell reporter; control for the full effect not named in the record | Potency, µM (highest dose often 37.9 µM), for inactives: at the top dose activity change, negative = inhibition, hits mostly inhibitors | actives 1.2% (n = 300,000) | AID 540256; active means well fitted inhibition curve with a large enough effect; inconclusive means small, poorly fitted or top-dose-only effect, or effect the other way; inactive means flat fitted curve, though single readings scatter; tested in HEK293 cells; note: % is set by controls: 0 for no effect and ±100 for the full control effect; nearly all actives have a fitted effect of over 50% in size; luciferase read-out
The depositor's hits bear a star; ? = inconclusive; nt = no result given; & = joins results of further samples; [ ] = another dose, or the depositor's remark. Unless noted, calls come from the whole dose curve; as a rule, active means well fitted rising curve with a large enough effect; inconclusive means small, poorly fitted or top-dose-only effect; inactive means no such curve, though single readings can be large or run the other way. Potency is the fitted concentration of half-maximal effect.

SMILES | RE007 growth inh | Cruzain noTriton | StopGo reporter | Cruzain inh Det | SARS PLP yeast | MARV entry inh | NS1 inh | Lassa entry inh
CCOc1ccc(CNC(=O)CCS(=O)(=O)Cc2cccc(Cl)c2)cc1OC | -13% | nt | -11% | nt | -1% | -1%[46.1 µM] | nt | 11%[46.1 µM]
Cc1cccc(CCNC(=O)CC2C(=O)NCCN2Cc2ccc(F)c(F)c2)n1 (stereo not given) | 14% | nt | -5% | nt | -1% | -8%[46.1 µM] | 6% | 14%[46.1 µM]
Cc1ccc(-n2nc3c(=S)[nH]nc(C)c3c2C)cc1 | -6% | -5% | -15% | 1.1% | 9% | -3% | 1% | -19%
COc1cc(OC)c2c(-c3ccccc3)cc(=O)oc2c1C(CC(=O)N1CCOCC1)c1ccc(N(C)C)cc1 (stereo not given) | -3% | nt | 35%[activator] | nt | 1% | nt | -47% | nt
Cc1nc(SC(C)C(=O)NC2CCCCC2C)c2c(C)c(C)sc2n1 (stereo not given) | 18% | nt | 13% | nt | -1% | nt | 5% | nt
COc1ccc(Cl)cc1NC(=O)CN1CCN(S(=O)(=O)c2ccc(F)cc2)CC1 | -3% | nt | -5% | nt | 0% | -3%[46.1 µM] | 3% | -13%
Cc1cccc(C(=O)Nc2ccn(C)n2)c1 | -1% | nt | 28% | nt | -3% | ? | nt | 26%
Cc1cccc2cc(C(c3nnnn3CC3CCCO3)N3CCCC4(CCCCC4)C3)c(=O)[nH]c12 (stereo not given) | nt | ? | nt | -3.5% | -2% | nt | -18% | nt
CCN(CC)CCCNC(=S)N(CCO)Cc1cc2cc3c(cc2[nH]c1=O)OCCO3 | -13% | nt | -20% | nt | 1% | nt | 8% | nt
Cc1ccc(S(=O)(=O)Nc2ccc3c(c2)C(=O)NC3=O)cc1[N+](=O)[O-] | 18% | nt | 81%[activator] | nt | 3% | 6% | -1% | 18%
O=C1c2ccsc2SCCN1Cc1cccc(Cl)c1 | -14% | 2% | -9% | -2.9% | -25% | -1% | -77% | 14%
Cc1nc2sc3c(c2c2nnc(SCC(=O)NCc4ccco4)n12)CCCC3 | -9% | ? | ? | -8.0% | -18% | ? | -5% | -4%
COc1c(Cl)cc(C(=O)Nc2ccccc2-c2ccccc2)cc1Cl | 0% | -6% | -18% | -0.2% | 2% | ? | -13% | -14%
CCCCC(=O)Nc1nnc(SCC(=O)N2CCN(c3ccccc3OC)CC2)s1 | 21% | 13% | ? | 0.1% | 1% | 5%&5% | -3% | 1%
O=C(NCc1ccc(Cl)cc1)c1ccc(-n2cccn2)nc1 | -11% | nt | 16% | nt | 0% | 8%[46.1 µM] | nt | 5%
Cc1cc(C)c(C)c(OCCN2CC(C)OC(C)C2)c1 (stereo not given) | -13% | nt | -11% | nt | 1% | nt | -3% | nt
CCC(C)(C)C(=O)O | -5% | 0% | -25% | -12% | -15% | nt | nt | nt
COc1ccc2[nH]c(=O)c(C(c3nnnn3CC3CCCO3)N3CCc4ccccc4C3)cc2c1 (stereo not given) | -8% | ? | 21% | -7.2% | -2% | ? | -2% | 6%
COc1ccc(C(=O)NC(=S)Nc2ccc(S(=O)(=O)Nc3cc(OC)nc(OC)n3)cc2)cc1 | 2% | nt | 52%[activator] | nt | 1% | 0%[46.1 µM] | 21% | 9%[46.1 µM]
O=C(COC(=O)c1c2c(nc3ccccc13)/C(=C\c1ccco1)CC2)NC1CCCC1 | -1% | nt | 12% | nt | nt | ? | nt | -11%
CC(=O)c1cccc(N(C(=O)Cn2nnc3ccccc32)C(C(=O)NCc2ccccc2)c2ccccn2)c1 (stereo not given) | 1% | 9% | 20% | -2.3% | -11% | 7% | -2% | 1%
Cc1ccccc1-c1cc(C(=O)n2cccn2)c2cc(Cl)ccc2n1 | -5% | 0% | 2% | -3.8% | -1% | ? | -21% | ?
COC(=O)CCC(=O)OC1(C)C(=O)C=C2C=C(C3CC3)N(CCCOC(C)C)C=C2C1=O (stereo not given) | -2% | nt | 6% | nt | -3% | -21%&-21%[14.2 µM] | 0% | nt
Cc1ccc(-n2nc3c(=O)n(CCCC(=O)N4CCC(C(N)=O)CC4)nc(C)c3c2C)cc1 | 3% | nt | 14% | nt | 2% | nt | -1% | nt
Cc1ccc(S(=O)(=O)/N=C(/NC(=S)Nc2c(C)n(C)n(-c3ccccc3)c2=O)c2ccccc2)cc1 | 2% | nt | 19% | nt | 0% | nt | -1% | nt
CC(C)C(NC(=O)C1CCCCC1)C(=O)NCc1ccccn1 (stereo not given) | -22% | -13% | -10% | 2.5% | -2% | 9% | -7% | 9%
COc1ccccc1N1CCN(CCCNC(=O)c2nnc(Cc3ccc(F)cc3Cl)o2)CC1 | nt | 8% | -28% | -0.3% | nt | ? | nt | -22%[46.1 µM]
COc1ccc(OC)c(CC(=O)N2CCc3cc(OC)c(OC)cc3C2)c1 | 9% | nt | ? | nt | -1% | 4%[46.1 µM] | 1% | 29%[46.1 µM]
CCCOc1ccccc1N/C(N)=N/c1nc(C)cc(C)n1 | -20% | nt | -10% | nt | -1% | ? | ? | 0%
CCOC(=O)C1CCCN(C(=O)C2CCN(S(=O)(=O)c3ccc4ccccc4c3)CC2)C1 (stereo not given) | 0% | nt | -20% | nt | -5% | -8% | -25% | ?
Cc1ccnc2nc(C(=O)NCc3ccccc3)nn12 | 9% | nt | 16% | nt | 5% | 3%[46.1 µM] | nt | 1%
COc1cc(NC(=O)c2cc(Br)cc(C)c2OC)ccc1NC(=O)C(C)C | 0% | nt | -29% | nt | -1% | -14%[46.1 µM] | 0% | -10%[46.1 µM]
Cc1ccc(C(=O)Nc2cccnc2)cc1S(=O)(=O)N1CCCCCC1 | -1% | nt | -11% | nt | -1% | -15% | -7% | -3%
CSc1nc(NCC(C)C)nc(N2CCOCC2)n1 | 13% | -1% | -8% | -2.6% | 2% | ? | -9% | 11%
O=S(=O)(O)c1ccc(N2N=C(c3ccccc3)CC2c2ccccc2)cc1 (stereo not given) | 9% | nt | 47%[activator] | nt | 0% | -9% | nt | 13%
COCc1cc(=O)[nH]c(/N=C(\N)Nc2cccc(Cl)c2)n1 | 4% | nt | -12% | nt | 0% | ? | nt | ?
CCNC(=O)NCCNC(=O)c1cc(OCC(F)(F)F)ccc1OCC(F)(F)F | 8% | nt | 7% | nt | -2% | 5%[46.1 µM] | 5% | -2%[46.1 µM]
C/C(N)=C(/C#N)C(=O)COc1ncnc2ccc(Br)cc12 | 2% | -10% | -11% | -2.4% | -2% | 4% | 6% | -2%
COc1ccccc1N1C(=O)C2C3C=CC(C3)C2C1=O (stereo not given) | 14% | -9% | -22% | 4.5% | ? | 16% | -13% | -2%
CC1COc2ccccc2N1C(=O)c1ccc(Cl)nc1 (stereo not given) | 6% | nt | -10% | nt | 1% | -4%[46.1 µM] | -5% | 7%
C=CCN(c1ccccc1)S(=O)(=O)c1cccc(C(=O)Nc2nc3ccccc3[nH]2)c1 | 31% | -6% | 22µM* | -5.2% | 2% | ? | 12% | -25%
CN1Cc2c(N3CCOCC3)nc3sc(C(=O)c4ccc(Br)cc4)c(N)c3c2CC1(C)C | -8% | nt | -1% | nt | -3% | ? | 1% | ?
CN(C)S(=O)(=O)N(CCN1CCOCC1)Cc1ccccc1F | 13% | 3% | -4% | -0.7% | -1% | ? | 1% | 8%
Nc1cccc2c1C(=O)N(CCOc1ccc(F)cc1)C2=O | -3% | nt | 21% | nt | -7% | ? | -5% | ?
COc1cc2c(cc1C(F)(F)F)N(C(=O)Nc1cc(F)cc(-c3cccnc3)c1)CC2 | nt | ? | -4% | 3.3%&1.0% | nt | 1.3µM* | -9% | nt
C=C(C)Cn1c(=O)c2c(nc3n2CCCN3Cc2ccccc2)n(C)c1=O | 8% | nt | -28% | nt | -20% | ? | -4% | ?
O=C(Cn1nc(-c2ccccc2)nc1-c1ccccc1)N1CCOCC1 | -4% | 2% | -29% | 0.1% | 2% | 7%[46.1 µM] | -2% | ?
COc1ccc(-c2cc(C(F)(F)F)nc(SCC(=O)N3CCCCC3)n2)cc1OC | nt | 24% | ? | -2.3% | nt | -2%[46.1 µM] | nt | -24%[46.1 µM]
Cc1ccc(F)cc1NC(=O)c1ccc(NS(=O)(=O)c2ccc(Br)s2)cc1 | 16% | 4% | 8% | -6.2% | 8% | ? | -3% | -3%
Cc1cccc(C(=O)OCC(=O)c2c(N)n(CC(C)C)c(=O)n(C)c2=O)c1[N+](=O)[O-] | 4% | nt | ? | nt | nt | ? | nt | ?

(list continues)
SMILES | RE007 growth inh | Cruzain noTriton | StopGo reporter | Cruzain inh Det | SARS PLP yeast | MARV entry inh | NS1 inh | Lassa entry inh
O=C(NC1CCN(Cc2ccccc2)CC1)c1ccccc1F | 9% | 4% | nt | 4.5% | -2% | -3% | 4% | -2%
Cc1oc(-c2ccc(Cl)cc2)nc1CN1CCC(C(=O)NCCCN2CCCC2=O)CC1 | 1% | -1% | -9% | 0.7% | -4% | nt | -3% | nt
Cc1ccc2c(c1)c1c(c(=O)n(Cc3ccccc3)c(=O)n1Cc1ccccc1F)n2C | nt | -5% | 6% | -0.4% | nt | nt | nt | 9%[46.1 µM]
O=C(NCCCN1CCCC1)C1CCN(C(=O)c2cc3sccc3n2Cc2ccc(F)cc2)CC1 | 1% | 12% | -17% | -3.7% | 8% | ? | 4% | 27%
CN(C)CCCNS(=O)(=O)c1cc(Cl)ccc1Cl | -11% | -8% | 4% | 3.5% | 0% | 14% | -1% | 0%
Oc1ccc2c3c1O[C@H]1c4oc5ccccc5c4C[C@@]4(O)[C@@H](C2)N(CC2CC2)CC[C@]314 | -6% | nt | -23% | nt | 0% | nt | -1% | nt
COc1cc(CNC2CCCCCC2)cc(OC)c1OC | -9% | 3% | -24% | 8.1% | nt | -15% | 10% | -3%
Cc1ccc(N/N=C2\CCS(=O)(=O)c3sccc32)cc1 | -1% | nt | 12% | nt | 4% | 16%[46.1 µM] | nt | -3%[46.1 µM]
COc1ccc(C2C(C(C)=O)=C(O)C(=O)N2CCO)c(OC)c1 (stereo not given) | 13% | -6% | -1% | -6.2% | 3% | -2%[46.1 µM] | -2% | 12%
CC(C)C1CC(O)(C2(O)CCCCC2)ON1 (stereo not given) | -5% | 5% | 1% | -3.7% | 1% | 10% | 0% | 2%
Cc1ccc(-n2c(C)nc3cc(Cl)ccc3c2=O)nc1 | 5% | nt | 17% | nt | 0% | -2%[46.1 µM] | -2% | -2%[46.1 µM]
